Screening results from PubChem BioAssay.
AID504770 = growth inhibition of E. coli YBA685, primary screen, V. cholerae RctB inhibitors; 130,000 tested, 0.27% active; E. coli YBA685 rctB-dependent plasmid, OD600 growth, 3 h; stronger effect = lower value; z-score (test concentration not listed); AID 504770, 2011;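 active = z-score under -2 on both plates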;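 note: wells of about 30 µL received 100 nL stock; score is relative to mean and SD of the test wells; the first replicate is given; strong numbers were not always called active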
CapD inh = Bacillus anthracis CapD inhibitors, primary screen, biochemical, fluorescence intensity; AID 492967, 2010; 140,000 tested, 0.23% active; purified CapD enzyme, fluorescence intensity read-out; stronger effect = lower value; some hits fall short of the stated cut; z-score (concentration not given with the values);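 active = z-score under -4 in either of two replicates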;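 note: stock transfer was 100 nL into about 40 µL; score is relative to mean and spread of the plate; one replicate is shown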
* = called active by the depositor; x = not tested or not shown. These rows are one share of the data; rates above refer to the full screens.

cpd	Structure	AID504770	CapD inh
1	O=C(CCC(=O)N1CCC(c2nc(-c3cccs3)no2)CC1)NCc1ccncc1	x	-0.03
2	Cc1onc(-c2ccccc2Cl)c1C(=O)Nc1sc2c(c1C(N)=O)CCCC2	x	2.6
3	CC[n+]1ccc(C)c2cc(S(=O)C(F)(F)F)ccc21 (centres undefined)	1.6	19
4	CN(C)c1ccc(/C=C2\SC(=O)N(CCC(=O)Nc3ccccc3)C2=O)cc1	0.1	x
5	Cc1cc(C(=O)CSc2nc3ccccc3s2)c(C)n1C	0.8	x
6	CCC(C)NC(=O)c1ccc(CS(=O)(=O)Cc2ccc(Cl)cc2)o1 (centres undefined)	1.2	0.81
7	CCOc1ccc(-n2c(=O)c(C#N)cc3c(=O)n4ccccc4nc32)cc1	1.6	0.24
8	Cc1ccc2[nH]c(=O)c3cc(C(=O)NCC4COc5ccccc5O4)sc3c2c1 (centres undefined)	-0.05	0.4
9	Cc1ccc(S(=O)(=O)NC(=O)NNC(=O)c2ccsc2)cc1	x	0.41
10	CCOc1ccc(-c2[nH]nc3c2C(c2ccc(OCC(N)=O)c(OC)c2)C(C#N)=C(N)O3)cc1 (centres undefined)	x	-0.48
11	CCOc1ccc2nc(-c3nc4ccccc4s3)sc2c1	1	-0.26
12	ONC=Nc1ccc2nnc(-c3ccccc3)n2n1	-0.7	-0.4
13	CCCCNC1=NCCS1	-0.5	x
14	N#CC1=C(N)Oc2ccccc2C12C(=O)Nc1cc(N)ccc12 (centres undefined)	-0.45	0.79
15	Cc1ccccc1CSc1nc(-c2ccccc2)c2c(c1C#N)CCC2	x	5.1
16	COc1ccc(OCC2CCCNC2)cc1 (centres undefined)	-0.15	x
17	O=C(O)Cc1c(-c2ccccc2)c2cc(Cl)ccc2[nH]c1=O	0.7	-0.33
18	O=C(O)c1ccccc1C(=O)N1CCC(C(=O)c2ccccc2)CC1	-0.55	x
19	COc1ccc(S(=O)(=O)N(CCC(=O)O)Cc2ccccc2)cc1	1.4	x
20	O=C(Cn1nc(C(=O)O)c2ccccc2c1=O)c1c[nH]c2ccccc12	-0.75	x
21	N#CCSc1ccc(Cl)cc1	x	-0.09
22	Cc1ccc(OC(=O)Nc2ccccc2)cc1	-0.05	1.1
23	O=C(/C=C/c1cccc(C(F)(F)F)c1)NCc1ccccc1	1.2	0.55
24	Cc1ccc(NP(C)(=O)c2nc3c(s2)CCCC3)cc1 (centres undefined)	3	x
25	CCOc1ccc(N2CC(O)(c3ccccc3)[N+]3=C2CCCC3)cc1 (centres undefined)	x	0.74
26	N#Cc1ccc(CSC2=Nc3ccccc3CS2)cc1	1.1	x
27	CCOCC(=O)Nc1cccc(NC(C)=O)c1	0.8	-0.19
28	CN(C)C1c2ccccc2-n2cccc21 (centres undefined)	x	0.57
29	CN(Cc1ccccc1Cl)C(=O)CNC(=O)c1ccco1	1	x
30	O=[N+]([O-])c1ccc(Oc2c(Cl)cc(S(=O)(=O)Nc3ccc(F)cc3F)cc2Cl)c(Cl)c1	x	0.065

2 of the compounds above, field by field.
21	N#CCSc1ccc(Cl)cc1
  AID504770: x; CapD inh: -0.09

30	O=[N+]([O-])c1ccc(Oc2c(Cl)cc(S(=O)(=O)Nc3ccc(F)cc3F)cc2Cl)c(Cl)c1
  AID504770: x; CapD inh: 0.065

Continuation:
cpd	Structure	AID504770	CapD inh
31	O=C(NCCS(=O)(=O)N1CCN(c2ccccc2)CC1)c1ccccc1	-0.4	x
32	CC/C(=N\c1ccnn1C1CCCCC1)c1c(O)n(CCOC)c(=S)[nH]c1=O	2.1	x
33	COc1ccc(-c2cc(=O)c3cc(OC(=O)c4ccncc4)ccc3o2)cc1	0.6	1.2
34	O=C(O)COc1ccc(CS(=O)(=O)Cc2ccc(OCC(=O)O)cc2)cc1	0.75	0.23
35	Cc1ccc(C)c(Nc2cc(N(C)C)c3nonc3c2[N+](=O)[O-])c1	x	-0.12
36	O=C(Oc1ccc(-c2ccccc2)c(F)c1)c1cccc(C(F)(F)F)c1	x	-0.36
37	COc1ccc(CCNC(=O)C2CCCN(S(=O)(=O)c3cccc4nonc34)C2)cc1OC (centres undefined)	-0.35	1
38	O=C(NN1S(=O)(=O)c2ccccc2S1(=O)=O)c1nsnc1NCCCl	x	-6.3*
39	COc1ccc(-c2csc(CN3CCN(c4ccccc4OC)CC3)n2)cc1	0.3	-1.5
40	Cc1ccn2c(N)c(-c3ccccc3)nc2c1	-0.15	x
41	COc1ccc(Oc2c(C(F)(F)F)oc3c(CN4CCN(C)CC4)c(O)ccc3c2=O)cc1	x	-1.2
42	Cc1nc(N2CCOCC2)c2c(C)c(C(=O)NC(C)c3ccccc3)sc2n1 (centres undefined)	x	1.7
43	CC(=O)Nc1c(O)[nH]c2ccc(C)cc12	1.6	-2.1
44	O=C(O)c1ccc(CS(=O)c2ccccc2)o1 (centres undefined)	0.45	-0.11
45	COc1ccccc1C(=O)C1C(=O)NC23CCN(C)CC2C1c1cc(Cl)ccc1O3 (centres undefined)	-1.2	-0.41
46	CN1C(=O)N(C)C2(c3ccccc3)NC(=O)NC12c1ccccc1 (centres undefined)	x	-0.23
47	O=C(Cn1nnc(-c2ccc(S(=O)(=O)N3CCCC3)cc2)n1)Nc1ccccc1-n1cccc1	0.4	x
48	NC(=O)c1cnn2c1NCC=C2c1cccc(C(F)(F)F)c1	0.4	0.42
49	O=C(Cc1coc2cc(O)ccc12)OCC(=O)c1ccc2[nH]c(=O)[nH]c2c1	-0.35	x
50	CCCCNC(=O)c1cccc(OC)c1	-0.2	x
51	Cc1ccc(-c2nc(CSCC(=O)NC3CC3)c(C)o2)cc1	-0.7	0.9
52	CCCS(=O)(=O)c1c(S(=O)(=O)CCC)c2cnccn2c1C(=O)c1ccc(C)cc1	x	-0.33
53	CCOc1ccc(-c2nc(COC(=O)C(NC(=O)c3ccco3)C(C)C)cs2)cc1OC (centres undefined)	-0.25	x
54	CN(C)S(=O)(=O)c1ccc(S(=O)(=O)N2CCC(c3nc4c(nnn4Cc4cccc(F)c4)c(=O)[nH]3)CC2)cc1	-0.9	x
55	Cc1nc(C(N)=S)cs1	-0.2	9.3
56	O=C(Nc1ccc(F)cc1F)N1CCN(Cc2cccc(Cl)n2)CC1	x	-0.39
57	O=C(OCCN(C1=NS(=O)(=O)c2ccccc21)c1ccccc1)C1CC(=O)N(c2ccccc2)C1 (centres undefined)	x	-0.09
58	COc1ccc(C=C2C(=O)C3CCN2CC3)cc1Br	x	-0.51
59	CC(=O)c1cccc(NC(=O)C2CC2c2ccccc2)c1 (centres undefined)	x	-0.36
60	O=C(NCc1ccc(-c2csnn2)cc1)OCc1cccc(Oc2ccc(Cl)cc2)c1	x	-0.41

Next section
Each structure is followed by: AID504770	CapD inh
61: CC(C)(C)c1ccc(C(=O)Nc2ccc(Oc3cccnc3)nc2)cc1
 : -0.65	-0.53
62: CCOc1ccc2c(c1)sc1nc(C(=O)OC)cc(=O)n12
 : x	-0.67
63: N#Cc1c(N)nc2c(c1-c1ccc3c(c1)OCO3)CCc1ccccc1-2
 : 1.4	x
64: Cc1ccc(S(=O)(=O)N(c2cccc(Cl)c2)c2nc3ccccc3s2)cc1
 : -0.7	122
65: Cc1cccc(/C=C2/NC(=O)NC2=O)c1
 : -0.95	-2.6
66: O=C(Cc1c(F)cccc1Cl)NCC1CCCO1 (centres undefined)
 : -0.95	-0.035
67: CCOCC(=O)NCc1ccc2c(c1)cc(C)n2C
 : 1.6	0.17
68: CN1CCN(C(=O)c2cc3c(ccc4ccccc43)oc2=O)CC1
 : 0.3	0.57
69: COc1ccc(-n2nc(C(=O)NCC(=O)Nc3ccc4c(c3)OCO4)c3ccccc3c2=O)c(OC)c1
 : 0.1	-0.2
70: CCN1C(=O)c2cccc3c(S(=O)(=O)N4CCN(CCO)CC4)ccc1c23
 : x	-0.16
71: O=C(CSc1nc2cc(C(=O)NCc3ccco3)ccc2c(=O)n1CC1CCCO1)c1ccccc1 (centres undefined)
 : x	0.6
72: CCN(CC)C(=O)CSc1nc2ccccc2n1C(=O)NC1CCCCC1
 : x	0.68
73: CCN1CC2=C(OC(N)=C(C#N)C2c2ccc(OC)cc2)/C(=C/c2ccc(OC)cc2)C1 (centres undefined)
 : x	1.8
74: O=C(CSC1=NNC(c2ccccn2)S1)c1ccc(Cl)cc1 (centres undefined)
 : -0.1	-0.3
75: Clc1cc2[nH]cc(-c3nnnn3-c3ccccc3)c2cc1Cl
 : 1.1	-0.36
76: O[C@@H]1[C@@H](O)C=C2CCN3Cc4cc5c(cc4[C@H]1C23)OCO5 (some centres undefined)
 : x	0
77: COc1ccc(Cl)cc1C(=O)NCc1ccc(C(=O)O)cc1
 : -1	0.17
78: C=CCN1C(=O)/C(=c2\sc3n(c2=O)C(c2ccc(OC(C)=O)cc2)C(C(=O)OCC)=C(C)N=3)c2ccccc21 (centres undefined)
 : x	-0.34
79: N#Cc1ccc(CN2C(=O)NC3(CCCc4ccccc43)C2=O)cc1 (centres undefined)
 : 0.2	x
80: CCc1ccc(N/N=C(\C#N)C(=O)N2CCN(C)CC2)cc1
 : -0.5	x
81: O=C1NC(=S)N(c2cccc(Br)c2)C(=O)/C1=C/c1cccn1-c1ccccc1
 : x	-1.9
82: O=C1c2ccccc2C(=O)N1CCc1nn2c(-c3cccnc3)nnc2s1
 : -0.4	0.45
83: Cc1oc(C(C)(C)C)cc1C(=O)Nc1ccc(N2CCOCC2)cc1
 : 0.55	-1.5
84: Cc1c(-c2nn3c(Cc4ccccc4)nnc3s2)nnn1-c1ccccc1
 : -0.4	x
85: CCCCc1noc(-c2ccc(OC(=O)c3ccccc3)cc2)n1
 : 0.65	x
86: O=c1oc2cc(O)ccc2s1
 : -0.25	x
87: O=C(Nc1ccccc1N1CCCCC1)c1ccc(F)cc1
 : -1.1	0.1
88: Cc1nn(Cc2cccc(C(=O)O)c2)c(C)c1Br
 : x	0.12
89: CCC1(C)Cc2ccccc2C(c2c(C)[nH]n(-c3ccccc3)c2=O)=N1 (centres undefined)
 : x	-0.25
90: COc1ccc2nc(NC(=O)C3CCCN(S(=O)(=O)c4ccc5c(c4)oc(=O)n5C)C3)sc2c1 (centres undefined)
 : 0.8	-0.28
91: N#C/C(=N\O)c1ccccc1Cl
 : 0.1	-0.99
92: CCOC(=O)N1CCC(N2C(=O)c3ccccc3C2O)CC1 (centres undefined)
 : -0.75	0.27
93: COc1ccc2c(c1)CCC1C2CCC2(C)C(O)CCC12 (centres undefined)
 : 0.05	0.48
94: CC1=C(C(=O)OC(C)C)C(C)C(C(=O)OC(C)C)=C(C)N1
 : -0.75	x
95: O=C(Oc1cccnc1)c1cccc(Br)c1
 : -0.8	-0.24
96: N#C/C(=C\NCc1cc(C(F)(F)F)cc(C(F)(F)F)c1)S(=O)(=O)c1ccc(Cl)cc1
 : x	0.48
97: CNC(=O)Nc1cn(C)c2ccccc12
 : 1.4	x
98: O=C(Cc1cccc2ccccc12)N(Cc1nnc(-c2ccccc2Cl)o1)C1CC1
 : -0.4	x
99: FC(F)(F)c1ccc(N2CCc3nc4ccncc4cc3C2)nc1
 : x	2.6
100: COc1cc(C2C(N3C(=O)c4ccc([N+](=O)[O-])cc4C3=O)C(=O)N2c2ccc(C)c(Cl)c2)cc(OC)c1OC (centres undefined)
 : x	0.11
101: COc1cc2c(cc1OC)C(CC#N)=NCC2
 : 1.8	2.2
102: CC(CNC(=O)CC1=NS(=O)(=O)c2ccccc2N1)c1ccccc1 (centres undefined)
 : 1.3	-0.42
103: Cc1ccc(-c2cccc(N)c2)o1
 : -1.2	x
104: O=C(Nc1cccc(-c2csc(NC(=O)c3ccc(F)cc3)n2)c1)c1ccc(F)cc1
 : 0.85	12
105: CN1CCN(NC(=S)Nc2ccccc2)CC1
 : 1.1	-0.51
106: CC(C)C1=C2CCCCC2NC(=O)N1 (centres undefined)
 : -0.65	0.28
107: CCOC(=O)N1CCC(=NNC(=O)CSc2nnc(-c3ccccc3)n2-c2ccccc2)CC1
 : -0.6	x
108: CC1=NN(c2ccc(Cl)c(C(=O)O)c2)C(=O)/C1=C/c1cn(Cc2ccccc2)c2ccccc12
 : x	-0.3
109: CC1CCC(NC(=O)CCCn2sc3ccccc3c2=O)CC1 (centres undefined)
 : -1.5	-0.33
110: CCOC(=O)CSc1nc2ccc(C(F)(F)F)cc2[nH]1
 : 0.25	-0.39
111: COc1ccc(-c2noc(=O)n2-c2cccnc2)cc1
 : 0.35	0.075
112: Cc1ccc([N+](=O)[O-])cc1NC(=O)C(Cc1c[nH]c2ccccc12)NC(=O)Oc1ccccc1 (centres undefined)
 : x	-0.67

In the list so far, these have an NH in an aromatic ring.
Each structure is followed by: AID504770	CapD inh
8: Cc1ccc2[nH]c(=O)c3cc(C(=O)NCC4COc5ccccc5O4)sc3c2c1 (centres undefined)
 : -0.05	0.4
10: CCOc1ccc(-c2[nH]nc3c2C(c2ccc(OCC(N)=O)c(OC)c2)C(C#N)=C(N)O3)cc1 (centres undefined)
 : x	-0.48
17: O=C(O)Cc1c(-c2ccccc2)c2cc(Cl)ccc2[nH]c1=O
 : 0.7	-0.33
20: O=C(Cn1nc(C(=O)O)c2ccccc2c1=O)c1c[nH]c2ccccc12
 : -0.75	x
32: CC/C(=N\c1ccnn1C1CCCCC1)c1c(O)n(CCOC)c(=S)[nH]c1=O
 : 2.1	x
43: CC(=O)Nc1c(O)[nH]c2ccc(C)cc12
 : 1.6	-2.1
49: O=C(Cc1coc2cc(O)ccc12)OCC(=O)c1ccc2[nH]c(=O)[nH]c2c1
 : -0.35	x
54: CN(C)S(=O)(=O)c1ccc(S(=O)(=O)N2CCC(c3nc4c(nnn4Cc4cccc(F)c4)c(=O)[nH]3)CC2)cc1
 : -0.9	x
75: Clc1cc2[nH]cc(-c3nnnn3-c3ccccc3)c2cc1Cl
 : 1.1	-0.36
89: CCC1(C)Cc2ccccc2C(c2c(C)[nH]n(-c3ccccc3)c2=O)=N1 (centres undefined)
 : x	-0.25
110: CCOC(=O)CSc1nc2ccc(C(F)(F)F)cc2[nH]1
 : 0.25	-0.39
112: Cc1ccc([N+](=O)[O-])cc1NC(=O)C(Cc1c[nH]c2ccccc12)NC(=O)Oc1ccccc1 (centres undefined)
 : x	-0.67
